Screening results (PubChem)
PINK1 modulator – PINK1 expression modulation; Potency, µM (top dose mostly 76.6 µM), without a hit: at the top dose activation (PINK1 increase), actives largely listed as activators; PINK1 immunofluorescence, high-content cytometry, 24 h; hit rate 0.2% among 410,000; AID 624263; active = well fitted activation curve with a large enough effect; inconclusive = small, poorly fitted or top-dose-only effect; inactive = flat fitted curve, though single readings scatter; cell line not stated here;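 also: potency is read from the fitted curve at half-maximal effect; % of control where 0% means no effect; nearly all actives have a fitted effect of over 65% in size; a mitochondrial uncoupler was the plate control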
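Compound titrations (5 concentrations, 24 h) on a stable cell line; DMSO and CCCP controls. Endpoint: fixed-cell PINK1 immunofluorescence with mitochondrial, cell and nuclear markers, scanned by microplate cytometer.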
TRPML1 ag – human mucolipin-1 channel agonism; Q9GZU1; TRPML1-expressing cells, Ca2+ dye fluorescence, FDSS; host cell line not named in the record; reference of the full effect not given here; activation, % (no concentration beside the values); hit rate 0.12% among 410,000; AID 624414; in the data active = activation above about 50%; inconclusive = about 30% to 50%; inactive = below about 30%; also: 0% is about no effect; the text of the record puts the active cut at 80%
Target sequence (Q9GZU1 whole entry, looked up): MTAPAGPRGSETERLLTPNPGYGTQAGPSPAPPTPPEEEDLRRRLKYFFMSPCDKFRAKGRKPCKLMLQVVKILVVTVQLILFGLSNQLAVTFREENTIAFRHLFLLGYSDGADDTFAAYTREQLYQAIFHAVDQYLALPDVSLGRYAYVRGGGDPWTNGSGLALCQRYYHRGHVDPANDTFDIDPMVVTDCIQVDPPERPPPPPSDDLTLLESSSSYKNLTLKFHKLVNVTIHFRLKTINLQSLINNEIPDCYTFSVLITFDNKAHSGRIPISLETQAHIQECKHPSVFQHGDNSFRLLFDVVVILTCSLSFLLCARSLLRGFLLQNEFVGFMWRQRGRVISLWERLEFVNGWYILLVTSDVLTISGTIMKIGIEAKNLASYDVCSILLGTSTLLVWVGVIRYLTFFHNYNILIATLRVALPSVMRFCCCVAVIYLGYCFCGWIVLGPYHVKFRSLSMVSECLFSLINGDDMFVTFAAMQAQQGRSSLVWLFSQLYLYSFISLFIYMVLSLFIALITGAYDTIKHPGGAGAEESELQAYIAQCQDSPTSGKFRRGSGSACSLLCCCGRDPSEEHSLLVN
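Tet-induced TRPML1-DL cells, 1,500 per well, cultured overnight, were loaded with a no-wash Ca2+ dye for 45–90 min. Calcium fluorescence was recorded on the FDSS for 110 s after compound addition, before the EC80 agonist (4 uM 54-4) was added.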
* = called active by the depositor; u = inconclusive. A portion of the library; the hit share may differ from the screen's.

Each structure is followed by: TRPML1 ag, PINK1 modulator
CC(=O)c1cccc(NC(c2ccc(F)cc2)c2nnc(-c3ccccc3)o2)c1 (stereo not drawn)
→ 1.7, -0.5%
COc1ccc(NC(=O)Cn2c(=O)n(CCCCCC(=O)NCc3ccc4c(c3)OCO4)c(=O)c3sccc32)cc1Cl
→ -0.3, -0.9%
Cc1ccc(/C=C/C(=O)Nc2ccc(Cl)cc2Cl)cc1
→ -0.8, -0.4%
Cc1cc(C)cc(-n2ccnc2SCC(=O)Nc2ccc3c(c2)OCO3)c1
→ 2.8, -3.5%
CCCOc1ccc(C(=O)Nc2cccc(NC(=O)c3ccc(Cl)cc3Cl)c2)cc1
→ -0.6, 4.9%
COCCNc1ccc(-c2nc(-c3ccco3)no2)cc1[N+](=O)[O-]
→ -0.9, 3.4%
CCOC(=O)c1c(C)oc2nc(C)nc(NCC3CCN(Cc4ccc(C)cc4)CC3)c12
→ -0.3, 0.2%
Cc1c(C#N)c(NC(=O)COC(=O)c2cc(Cl)c3c(c2)OCCCO3)n(Cc2ccco2)c1C
→ -0.6, 3.3%
Cc1ccc2oc(=O)n(CCNC(=O)Nc3ccccc3Cl)c2c1
→ -0.1, -0.4%
CCOc1ccccc1C(=O)N(Cc1ccc(N(C)C)cc1)CC1CCCO1 (stereo not drawn)
→ -0.9, 0.0%
Cc1ccc(C(=O)Nc2nc3n(n2)C(c2ccc(F)cc2)C=C(c2ccccc2)N3)cc1 (stereo not drawn)
→ 4.6, 2.6%
COc1cccc(N2CCN(C(=O)c3ccc4nc(N5CCC(C)CC5)sc4c3)CC2)c1
→ 2.6, 3.5%
Cc1ccc(Cn2ccnc2SCC(=O)Nc2nnc(C)s2)cc1
→ 0.8, -0.1%
Cc1ccc(NCc2cccn2-c2nnc(N3CCCCCC3)s2)cc1
→ 3.3, -2.0%
CCOC(=O)c1cc(S(=O)(=O)Nc2cc(C)c(Cl)cc2OC)[nH]n1
→ -0.3, 3.1%
Cc1ccccc1C(=O)Nc1ccc(C(=O)OCc2cc(=O)n3nc(C4CC4)sc3n2)cc1
→ 1.3, -0.3%
CCOC(=O)c1ccc(NC(=O)CN(c2ccc(C)cc2)S(=O)(=O)c2ccc(OC)cc2)cc1
→ 1.1, 0.0%
COc1ccc(C(=O)Nc2ccc3nc4c(c(Nc5ccc(OC)c(OC)c5)c3c2)CCCC4)c(OC)c1
→ -0.5, 22.3%
COc1ccc(C)cc1NS(=O)(=O)c1ccc2[nH]c(=O)c(=O)[nH]c2c1
→ 0.2, 1.0%
Cc1nn(C(=O)c2ccc(Br)cc2)c(C)c1Sc1ccccc1
→ 3.0, -0.9%
CC1=C(C(=O)Nc2ccccc2C)C(c2cccnc2)n2nc(SCc3ccccc3F)nc2N1 (stereo not drawn)
→ 0.4, 3.5%
O=C(C1CCC(Cn2c(=O)c3sccc3n(Cc3ccccc3)c2=O)CC1)N1CCCCC1 (stereo not drawn)
→ 0.3, 5.0%
Cc1ccc(CNC(=O)C2CCN(c3nc4ccc(C)cc4[nH]3)CC2)cc1
→ 2.4, 1.2%
COc1ccccc1CCNC(=O)C1(c2cccs2)CCOCC1
→ -0.5, 0.6%
CCOc1ccc(-n2ccnc2SCC(=O)Nc2nc3ccc(C)cc3s2)cc1
→ 2.8, u
COc1ccc(OC)c(Nc2nc(-c3ccc(C)cc3)nc3ccccc23)c1
→ -0.5, 2.3%
Cc1cccc(NC(=O)Cn2nc(C)c3nn(-c4ccc(Cl)cc4)c(C)c3c2=O)c1C
→ -0.7, -0.2%
CCN(CC)c1ccc(/C=C/c2c(C)cnc3ccccc23)cc1
→ 2.6, 1.2%
O=C(Nc1cccc(OCc2cc(=O)n3c4c(sc3n2)CCCC4)c1)c1ccc(F)cc1
→ -0.6, 17.4%
Cc1oc(-c2ccc(C(=O)NCc3ccccc3F)cc2)nc1COc1ccccc1
→ 2.0, 8.1%

2 records drawn at random from the list so far, as already listed:
Each structure is followed by: TRPML1 ag, PINK1 modulator
Cc1c(C#N)c(NC(=O)COC(=O)c2cc(Cl)c3c(c2)OCCCO3)n(Cc2ccco2)c1C
→ -0.6, 3.3%
CCOC(=O)c1c(C)oc2nc(C)nc(NCC3CCN(Cc4ccc(C)cc4)CC3)c12
→ -0.3, 0.2%

Some of the entries so far, bar-delimited:
SMILES | TRPML1 ag | PINK1 modulator
Cc1nn(C(=O)c2ccc(Br)cc2)c(C)c1Sc1ccccc1 | 3.0 | -0.9%
CC1=C(C(=O)Nc2ccccc2C)C(c2cccnc2)n2nc(SCc3ccccc3F)nc2N1 (stereo not drawn) | 0.4 | 3.5%
O=C(C1CCC(Cn2c(=O)c3sccc3n(Cc3ccccc3)c2=O)CC1)N1CCCCC1 (stereo not drawn) | 0.3 | 5.0%
Cc1ccc(CNC(=O)C2CCN(c3nc4ccc(C)cc4[nH]3)CC2)cc1 | 2.4 | 1.2%
COc1ccccc1CCNC(=O)C1(c2cccs2)CCOCC1 | -0.5 | 0.6%
CCOc1ccc(-n2ccnc2SCC(=O)Nc2nc3ccc(C)cc3s2)cc1 | 2.8 | u

Continuation:
Each structure is followed by: TRPML1 ag, PINK1 modulator
CCn1c(SCC(=O)c2ccccc2)nnc1-c1cccc(Cl)c1
→ -1.1, 0.2%
CCn1nc(C)c2c(-c3ccccc3)cc(=O)n(C(C)C(=O)NCCc3ccc(Cl)cc3)c21 (stereo not drawn)
→ 1.7, u
O=C(CSc1nc2c(sc3ccccc32)c(=O)n1CCCC(=O)NC1CCCC1)Nc1ccc(F)cc1
→ -0.9, 1.0%
CC(=O)Nc1cccc(C(=O)OCC(=O)NC(=O)C2CCCCC2)c1
→ -0.5, 0.9%
COc1cccc(-n2cc(C(=O)Nc3cc(C)c(Cl)cc3OC)c3ccccc3c2=O)c1
→ -0.3, 1.4%
Cc1ccc(-c2cnc(NCc3ccc(C(C)C)cc3)n2C)cc1
→ 9.5, 1.4%
CCOC(=O)CNC(=O)N1[C@H](c2cccs2)[C@@H](C)C(=O)[C@@H](C)[C@@H]1c1cccs1
→ 1.4, -0.9%
O=C(Nc1ccc(F)cc1)Nc1nnc(SCC(=O)N2CCCCC2)s1
→ -0.7, 0.5%
COc1ccc(CNC(=O)CN2C(=O)CC(c3ccc(C)c(C)c3)=Nc3ccccc32)cc1
→ -0.1, 1.5%
CCc1ccc(-c2[nH]nc3nc(-c4cc(OC)ccc4OC)cc(C(=O)O)c23)cc1
→ 0.0, -1.0%
COC(=O)c1ccccc1NC(=O)Cn1nc(C(F)(F)F)c2c1CCCC2
→ 2.5, 2.5%
COCCCNC(=O)C1CCN(c2nc3ccc(C)cc3[nH]2)CC1
→ 1.0, -1.0%
CCCn1ccc2c(OCC(=O)Nc3ccc(C(F)(F)F)cc3)cccc2c1=O
→ -0.2, 4.3%
O=C(c1ccc2c(c1)N(Cc1c(F)cccc1Cl)C(=O)c1ccccc1S2)N1CCCC1
→ 0.7, 2.3%
CCOc1ccc(CCNC(=O)c2c(C)oc3ncn(CC(C)C)c(=O)c23)cc1OCC
→ -0.9, 1.0%
Cc1ncc(CO)c2c1Oc1nc(-c3ccccc3)nc(SCC(=O)Nc3cccc(C(F)(F)F)c3)c1C2
→ 1.0, 0.3%
CCCCN(CCCNC(=O)c1c(C)oc2nc[nH]c(=O)c12)Cc1ccccc1
→ 1.0, 1.5%
COc1cccc(N2CCN(C(=O)c3c(C)oc4ncnc(N5CCCCC5)c34)CC2)c1
→ -0.4, 1.0%
CCOc1ccc(N(CC)C(=O)C2CCN(S(=O)(=O)c3cccc4nonc34)CC2)cc1
→ -0.3, 1.0%
COc1ccc(-c2[nH]c(-c3ccc(F)cc3)nc2SCC(=O)Nc2ccc(OC)c(OC)c2)cc1
→ 1.2, 1.8%
COc1ccc(CCNC(=O)c2ccc3[nH]c(C)c(C)c3c2)cc1OC
→ -1.2, 0.1%
CC(=O)Nc1ccc(NC(=O)CCCc2nc(-c3ccc(C(C)(C)C)cc3)no2)cc1
→ 1.0, 2.0%
COc1ccc(OC)c(S(=O)(=O)NCCc2sc(C)nc2C)c1
→ 1.2, -1.2%
CCCC1N=C2c3ccccc3N=C(SCC(=O)NCCc3ccc(Cl)cc3)N2C1=O (stereo not drawn)
→ -0.5, 0.7%
Cc1cc(C)cc(-n2c(SCC(=O)Nc3ccc4c(c3)OCCO4)nc3c([nH]c4ccccc43)c2=O)c1
→ 1.0, -5.0%
Nc1nc(=S)[nH]c(N)c1N
→ -0.6, -0.7%
CCN(CC)S(=O)(=O)c1cccc(C(=O)Nc2ccccc2C(=O)Nc2ccc(OC)cc2)c1
→ 0.1, -0.2%
O=C(c1cnn2c1NC(=C1CC1)C=C2C(F)F)N1CCc2ccccc2C1
→ -1.0, 0.3%
COc1ccc(CCN2C(=O)N(c3cccc(C)c3)C(=O)C2CC(=O)Nc2ccccc2)cc1OC (stereo not drawn)
→ -0.5, 0.1%
Cc1cccc(NC(=O)Nc2nnc(N3CCCC3)s2)c1
→ -0.4, -1.2%
O=C(CCn1cnc2onc(-c3ccc(F)cc3)c2c1=O)N1CCN(c2cccc(Cl)c2)CC1
→ 1.1, 0.6%
Cc1ccc(OC(=O)c2cc(-c3ccccc3)nc3ccc(C)cc23)cc1
→ 0.1, 0.9%
CCOC(=O)c1ccc(Nc2c(-c3cccc(O)c3)nc3nc[nH]n23)cc1
→ 0.0, 5.4%
CCOc1ccc(CCNC(=O)Cn2nnc(-c3ccc(OC)c(OC)c3)n2)cc1OCC
→ -1.1, 5.1%
COc1cc(OC)cc(C(=O)N2CCN(C(=O)COc3ccccc3)CC2)c1
→ 4.1, 0.3%
CCCOc1ccc(C(=O)Nc2cccc(-c3nc4ccccc4[nH]3)c2)cc1
→ 3.7, 1.7%
COc1ccc(N2CCN(CC(O)COc3ccc(C(C)C)c(C)c3)CC2)cc1 (stereo not drawn)
→ 0.1, u
Cc1ccc(OCC(=O)OCc2cc(=O)n3c(C)csc3n2)cc1
→ 0.5, 0.2%
O=C(Nc1sc2c(c1C(=O)NCc1cccnc1)CCCC2)c1cc(=O)c2ccccc2o1
→ -0.6, 0.1%
Cc1ccc(-c2c3c(=O)n(C)c(=O)n(C)c3c3n2-c2ccccc2NC3c2ccc(C)cc2O)cc1 (stereo not drawn)
→ 2.3, 28.4%
COc1ccc2c(c1)CC(C(=O)NCCN1CCN(c3ccccc3F)CC1)CO2 (stereo not drawn)
→ 0.6, -0.5%
Cc1cccc(NC(=O)Cn2nc(-c3ccc(Cl)cc3)c3ccccc3c2=O)c1
→ 0.8, -0.8%
Cc1cc(C)c(NC(=O)Cn2c(=O)n(Cc3ccc(C(=O)NCc4ccco4)cc3)c(=O)c3sccc32)c(C)c1
→ -0.3, 0.5%
COc1ccc(C(F)(F)F)cc1NC(=O)c1sc2nc(-c3cccs3)ccc2c1N
→ 0.4, 16.7%
Clc1cccc(-n2cc(-c3ccccc3)c3c(N4CCCCC4)ncnc32)c1
→ 0.1, 1.1%
CCC1=Nc2cc(C(=O)NCC(C)c3ccccc3)ccc2Sc2ccc(C)cc21 (stereo not drawn)
→ 1.0, 3.2%
COc1ccc(C(=O)Nc2cc(C(F)(F)F)ccc2N2CCN(c3ccccc3)CC2)cc1OC
→ 0.8, 1.0%
Cc1ccc(CN2C(=O)c3ccccc3Sc3ccc(C(=O)N4CCOCC4)cc32)cc1
→ 1.2, 0.4%
Cc1cc(NC(=O)C(C)(C)C)cc(-c2nc3ncccc3o2)c1O
→ 0.8, 1.9%
CCCCC1CCC(C(=O)N2CC(=O)Nc3ccc(F)cc3C2c2ccc(F)cc2)CC1 (stereo not drawn)
→ 0.4, 4.0%
COc1cc(OC)c(NC(=O)N2CC=C(c3c[nH]c4ccccc34)CC2)cc1Cl
→ 0.2, 5.0%
O=C(CC1C(=O)N(c2ccccc2)C(=O)N1CCc1cccs1)Nc1ccc(F)cc1 (stereo not drawn)
→ 0.2, 1.2%
CCOc1ccc(NC(=O)c2c(NCc3cc(OC)c(OC)cc3OC)sc3c2CCCC3)cc1
→ -0.3, 0.0%
Cc1ccc2c(c1)cc1c(=O)n(Cc3ccccc3Cl)nc(C)n12
→ -0.6, -0.4%
CCOc1ccc2nc(N3CCN(C(=O)c4ccc5c(c4)CCCC5)CC3)sc2c1
→ 1.3, -1.0%
O=C(CCn1c(=O)c2cccn2c2cccnc21)NCc1cccc(Br)c1
→ -0.7, 2.0%
Cc1cc(C)cc(NC(=O)CSCn2nnc3c(=O)[nH]c(Cc4ccc(F)cc4)nc32)c1
→ 1.4, -0.5%
Cc1ccc(Cl)cc1NC(=O)c1oc2c(c1C)-c1[nH]ncc1CC2
→ 2.4, -0.2%
CCCCCSc1nnc2c(n1)[nH]c1c(C)cccc12
→ 0.3, 19.3%
Cc1ccc(S(=O)(=O)N2CCCc3cc(NS(=O)(=O)c4cc(C)ccc4C)ccc32)cc1
→ 0.8, 0.9%
COc1ccc(CNC(=O)CSc2ncc(S(=O)(=O)c3ccc(Br)cc3)c(=O)[nH]2)cc1
→ -0.3, 0.7%
COc1cccc(C(=O)NCCSc2c(-c3ccc(F)cc3)[nH]c3ccccc23)c1OC
→ -0.3, 1.2%
CC(=O)Nc1ccc(S(=O)(=O)NC2(C(F)(F)F)C(=O)Nc3c2c(=O)[nH]c(=O)n3-c2cccc(Cl)c2)cc1 (stereo not drawn)
→ 0.0, 4.2%
